Methyltransferases – Primary Screen for Target Class Profiling of Small Molecule Inhibitors of Methyltransferases. purified enzyme, MTase-Glo SAH luminescence; stronger effect = lower value. calls only at 40 µM. hit rate 3.9% among 25,000. AID 1745853, 2022; active = -50% or lower on at least one of six enzymes; inconclusive = the cases between; inactive = as a rule above -30% on all six;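 also: enzymes were COMT GAMT GNMT HNMT NNMT and PNMT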
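Each enzyme was assayed with SAM and its substrate. SAH formation detected by MTase-Glo luminescence; single-point 40 uM screen[…].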
Calls only; i = inactive; ? = inconclusive; + = active, no number. % is scaled to controls: 0 for no effect and ±100 for the full control effect. These rows are one share of the data, so the mix of outcomes need not match the whole.

Molecule | Methyltransferases
Nc1ncnc2c1c(-c1cccc(OCc3ccccc3)c1)cn2C1CC(CN2CCCC2)C1 (centres undefined) | +
COC(=O)c1ccnc(-c2cc(C(=O)NCCc3ccccc3)ccn2)c1 | ?
NCCc1cccc(CN2CCCC(CO)(CC3CC3)C2)c1 (centres undefined) | i
CN(CC1CCCN(CCc2cccc(C(F)(F)F)c2)C1)C(=O)c1ccc2[nH]ccc2c1 (centres undefined) | i
C[C@H](C(=O)N1CCSCC1)C1CC[C@@]2(C)Cc3sc(Nc4c(Cl)cccc4Cl)nc3[C@@H](C)[C@@H]2[C@H]1O (some centres undefined) | i
Cc1ccc(OCC(=O)NCc2c(C)ncc3c2CCNC3)cc1C | i
O=c1[nH]c2ccc(S(=O)(=O)NCCCc3ccccc3)cc2[nH]1 | i
CC1(C(=O)NC2CCCCCC2)Cn2nc(-c3ccco3)cc2C(=O)N1Cc1ccccc1F (centres undefined) | i
COC(=O)c1ncn2c1C(=O)N(c1cccc(SC)c1)C(C)(C(=O)NC1CCCCC1)C2 (centres undefined) | i
COc1ccccc1CNC(=O)C1(C)Cn2c(cc3ccccc32)C(=O)N1CCc1cccs1 (centres undefined) | i
CC1(C)CC[C@]2(C(=O)O[C@@H]3O[C@H](CO)[C@@H](O)[C@H](O)[C@H]3O)CC[C@]3(C)C(=CCC4[C@@]5(C)C[C@H](O)[C@H](O[C@@H]6O[C@H](C(=O)O)[C@@H](O)[C@H](O)[C@H]6O)[C@@](C)(CO)C5CC[C@]43C)C2C1 (some centres undefined) | i
CCOc1ccccc1NC(=O)N1Cc2c(sc3c2CCCC3)-n2cccc2C1c1ccc(F)cc1 (centres undefined) | i
COc1cccc(S(=O)(=O)N2CC3(Cc4ccccc4C(=O)N3)C2)c1 | i
O=c1[nH]nc2n1CCN(CC1CCCCC1)CC2 | i
CCCCNC(=O)Cn1ccc2cc(S(=O)(=O)N3CCCC3)ccc21 | i
CCOC(=O)N1CCN(C(=O)Cn2sc3nc(C)cc(C)c3c2=O)CC1 | ?
CCOc1cc(=O)n2c(c1C(=O)Nc1cccc(C)c1)CCCC2 | i
CCCn1c(=O)c2ccc(C(=O)NC3CCCC3)cc2n2c(=O)n(Cc3c(F)cccc3Cl)nc12 | i
COC1CCCOC12CCN(C(=O)CCn1c(C)nc3ccccc31)CC2 (centres undefined) | i
CC(=O)OC[C@]12[C@H](OC(C)=O)[C@H](OC(=O)c3ccccc3)[C@@H]3[C@@H](OC(C)=O)[C@]1(OC3(C)C)[C@H](C)C[C@H](OC(C)=O)[C@@H]2OC(=O)c1ccccc1 | i

(list continues)
Molecule | Methyltransferases
Cc1ccccc1C(C(=O)NC1CCCCC1)N(C(=O)Cn1cnc2ccccc21)c1cccc(F)c1 (centres undefined) | ?
Cc1ccc(-c2n[nH]n3c2nc(=O)c2ccc(C(=O)NCc4cccnc4)cc23)cc1 | i
C[S+](=O)([O-])N1CCC(c2nnc3n2C(C(=O)NC2CCCCC2)CC3)CC1 (centres undefined) | i
Cc1nc2c(c(C)c1CCC(=O)N1CCN(c3ccccc3)CC1)c(=O)n(C)c(=O)n2C | ?
CC(=O)Nc1cccc(-c2cc3c(cn2)CN(Cc2ccccc2)CCN3)c1 | +
CC(C)Oc1ccc(CN2C(=O)c3nc4ccccc4n3CC2(C)C(=O)NC2CCCC2)cc1 (centres undefined) | i
C=C[C@H]1C(O[C@@H]2O[C@H](CO)[C@@H](O)[C@H](O)[C@H]2O)OC=C2C(=O)N3CCc4c([nH]c5ccccc45)[C@H]3C[C@H]21 (some centres undefined) | i
NC(=O)Nc1cc(-c2cccc(F)c2)sc1C(=O)N[C@H]1CCCNC1 | ?
CC(NC(=O)CCc1nnc2n(Cc3ccccc3)c(=O)c3ccccc3n12)c1ccccc1 (centres undefined) | i
COc1ccc(-c2nnc(-c3ccc(Cl)c(S(=O)(=O)N4CCCCCC4)c3)o2)cc1 | i
CCOC(=O)C1CCCN(c2nc3c(S(=O)(=O)c4ccc(Br)cc4)nnn3c3ccccc23)C1 (centres undefined) | i
CC1CCC(NC(=O)C2(C)Cn3c(cc4occc43)C(=O)N2CC(C)c2ccccc2)CC1 (centres undefined) | i
COC(=O)c1cc2n(n1)CC(C)(C(=O)NC1CCCCC1)N(c1ccc(Cl)cc1C)C2=O (centres undefined) | i
CC(C)Cn1c(=O)c2ccccc2n2c(=O)n(CC(=O)c3ccc(F)cc3)nc12 | i
Cc1ccc(S(=O)(=O)NCCN2CCN(S(=O)(=O)c3ccc(C)cc3)CC2)cc1 | i
O=Cc1ccc(N2CCN([S+](=O)([O-])C3CC3)CC2=O)cc1 | i
COc1ccc(CCN2C(=O)c3cc4ccccc4n3CC2(C)C(=O)NCc2ccccc2)cc1OC (centres undefined) | i
COc1ccc(C(=O)NCCc2ncc(C)n2C2CC2)cn1 | i
CCC1(O)CCC12CCN(C(=O)C1CCCC1)CC2 (centres undefined) | i
C=CC(C)=C[C@@]1(C)SC(=O)C(C)=C1O | i

Next entries:
Molecule | Methyltransferases
O=C(NCc1ccccc1F)c1ccc2c(=O)nc3c(-c4ccccc4)n[nH]n3c2c1 | i
CC1(C(=O)NCc2ccccc2)Cn2nc(-c3ccccc3)cc2C(=O)N1C1CC1 (centres undefined) | i
CC(=O)N1CC2(CCN(CCCn3ccnc3C)CC2)CC1C(=O)O (centres undefined) | i
COCC(=O)N1CCN(c2nc3ncccc3o2)CC1 | i
CC(O)CN1CC2(CCC1=O)CCN(CCCn1ccnc1)CC2 (centres undefined) | i
CCc1ccccc1NC(=O)Cn1nc2cc(C)nc(Nc3ccc(F)cc3)n2c1=O | i
CC(C)CCN1CCNC(=O)C1CC(=O)N(Cc1cnn(C)c1)C1CC1 (centres undefined) | i
CC(C)c1ccc2c(c1)CCC1[C@](C)(C(=O)O)CCC[C@]21C (some centres undefined) | i
CN(CCc1noc(C2CN(C(=O)CN3CCCCCC3)C2)n1)S(C)(=O)=O | i
COc1cccc(NCCC2(c3ccccc3)CC(C)(C)OC(C)(C)C2)c1 | ?
O=C(NCc1ccc(Cl)s1)C1CCCN(C2CCN(C(=O)C3CC3)CC2)C1 (centres undefined) | i
CCC(C)NC(=O)c1ccc2c(=O)n(CC(C)C)c3nn(Cc4cccc(OC)c4)c(=O)n3c2c1 (centres undefined) | i
CCCn1c(=O)c2ccc(C(=O)NC(C)C)cc2n2c(=O)n(CC(=O)Nc3ccc(F)cc3)nc12 | i
CC1OC(OC2C(O)C(C(=O)O)OC(OC3CCC4(C)C(CCC5(C)C4C=CC4=C6CC(C)(C)CC(O)C6(C)CCC45C)C3(C)C)C2OC2OCC(O)C(O)C2O)C(O)C(O)C1O (centres undefined) | i
C=CC1(C)C=C2CC[C@H]3[C@@](C)(C(=O)O)CCC[C@]3(C)C2CC1 (some centres undefined) | i
CCOCCOc1cccc(C(=O)N2C[C@@H](N(C)C)[C@H](C(C)C)C2)c1 | i
CC(C)CCNC(=O)C1(C)Cn2c(cc3ccccc32)C(=O)N1CCc1ccco1 (centres undefined) | i
COCCCN1CC2(CCN(C(=O)c3cc(C(C)C)oc3C)CC2)CC1=O | i
CCCn1c(=O)c2ccc(C(=O)NC(C)C)cc2n2c(=O)n(CC(=O)Nc3cccc(C)c3)nc12 | i
COc1ccc(-c2nc3ccccc3[nH]2)cc1 | +

In a second layout: results already given
CC(O)CN1CC2(CCC1=O)CCN(CCCn1ccnc1)CC2 (centres undefined)
  Methyltransferases: i

COCCCN1CC2(CCN(C(=O)c3cc(C(C)C)oc3C)CC2)CC1=O
  Methyltransferases: i

CCCn1c(=O)c2ccc(C(=O)NC(C)C)cc2n2c(=O)n(CC(=O)Nc3ccc(F)cc3)nc12
  Methyltransferases: i

CC(C)CCNC(=O)C1(C)Cn2c(cc3ccccc32)C(=O)N1CCc1ccco1 (centres undefined)
  Methyltransferases: i

Four entries from above, as labelled records:
CCC(C)NC(=O)c1ccc2c(=O)n(CC(C)C)c3nn(Cc4cccc(OC)c4)c(=O)n3c2c1 (centres undefined)
  Methyltransferases: i
CCCn1c(=O)c2ccc(C(=O)NC(C)C)cc2n2c(=O)n(CC(=O)Nc3ccc(F)cc3)nc12
  Methyltransferases: i
CC1OC(OC2C(O)C(C(=O)O)OC(OC3CCC4(C)C(CCC5(C)C4C=CC4=C6CC(C)(C)CC(O)C6(C)CCC45C)C3(C)C)C2OC2OCC(O)C(O)C2O)C(O)C(O)C1O (centres undefined)
  Methyltransferases: i
C=CC1(C)C=C2CC[C@H]3[C@@](C)(C(=O)O)CCC[C@]3(C)C2CC1 (some centres undefined)
  Methyltransferases: i

The results go on:
| canonical_smiles | Methyltransferases |
| --- | --- |
| COc1cccc(CN2CC(Oc3ccccc3C(=O)NC3CC3)C2)c1 | i |
| CC1=NS(=O)(=O)N(C)C=C1C(=O)OCc1noc(-c2ccco2)n1 | i |
| COc1ccc(CN2C(=O)CO[C@H]3CN(C(=O)C4CC4)C[C@H]32)cc1 | i |
| CCC(C(=O)NCc1ccco1)n1ccc2cc(S(=O)(=O)N3CCCCC3)ccc21 (centres undefined) | i |
| COCC(=O)NC1CCC12CCN(Cc1ccc(C)o1)CC2 (centres undefined) | i |
| CC(C)=CCc1ccc(Oc2c(O)cc(C)cc2CO)c(C(=O)O)c1O | i |
| CC(C)CCNC(=O)CCc1nnc2n(CCc3ccccc3)c(=O)c3ccccc3n12 | i |
| CC1(C(=O)NC2CCCC2)Cn2c(nc3ccccc32)C(=O)N1Cc1ccc(F)cc1 (centres undefined) | i |
| COc1cc(C2Oc3c(OC)cc(CCCO)cc3C2CO)ccc1O (centres undefined) | + |
| CC(C)CCNc1nc2c(-c3cccc(Br)c3)nnn2c2ccccc12 | i |
| CCc1ccc(CN2C(=O)c3ccc(-c4ccccc4)n3CC2(C)C(=O)NC2CCCCCC2)cc1 (centres undefined) | i |
| O=C(CCCc1ccccc1)Nc1ccnn1C1CCN(C(=O)c2ccccc2F)CC1 | i |
| CC(C)CNC(=O)c1ccc2c(=O)n(Cc3ccccc3)c3nn(Cc4cccc(Cl)c4)c(=O)n3c2c1 | i |
| Cc1ccc(CCNC(=O)c2ncn3c2C(=O)N(C2CC2)C(C)(C(=O)NCc2ccc(C)cc2)C3)cc1 (centres undefined) | i |
| Cc1ccc(C2c3cccn3-c3sc4c(c3CN2C(=O)NCc2ccccc2)CCCC4)cc1 (centres undefined) | i |
| O=C1NC2(CCN(CC3CCCCC3)CC2)COc2ccccc21 | i |
| C=CC[C@]12C[C@@H](OC)C(=O)C(OC)=C1O[C@@H](c1cc(OC)c3c(c1)OCO3)[C@@H]2C | i |
| O=C1NC(=Nc2ccccc2F)S/C1=C\c1ccc(C(=O)O)cc1 | i |
| CC(C)(C)OC(=O)N[C@H]1CCCCCC=C[C@@H]2C[C@@]2(C(=O)NS(=O)(=O)C2CC2)NC(=O)[C@@H]2C[C@@H](OC(=O)N3Cc4cccc(F)c4C3)CN2C1=O | i |
| Cn1c(Cn2cccn2)nnc1C1CC(Nc2ncnc3sccc23)C1 (centres undefined) | i |
| O=C(c1ccco1)N1Cc2[nH]cnc2C[C@H]1c1nc(-c2ccncc2)no1 | ? |
| COCCNC(=O)C1(C)Cn2nc(-c3ccccc3)cc2C(=O)N1Cc1ccc(C)cc1 (centres undefined) | i |
| Cc1cc(=O)n(CC(=O)NCc2ccccc2Cl)c(N(C)Cc2ccccc2)n1 | i |
| CCCCN(CC)CCN1C(=O)c2cc3sccc3n2CC1(C)C(=O)NC1CCCCCC1 (centres undefined) | i |
| COc1ccc(NC(=O)Cn2nc3nc(Nc4ccc(F)cc4)ccn3c2=O)cc1Cl | i |

(further entries)
| canonical_smiles | Methyltransferases |
| --- | --- |
| c1ccc(-c2ccnc3nc(CCC4CCCC4)nn23)nc1 | ? |
| Cc1cccc(-c2nc3cc(C(=O)NCc4ccc(F)cc4)ccc3o2)n1 | i |
| COc1ccc(N2C(=O)[C@@H]3Cc4nc[nH]c4CN3C2=O)cc1 | i |
| COC(=O)C1C(c2ccc(O)cc2)C(C(=O)OC)C1c1ccc(O)cc1 (centres undefined) | i |
| COc1ccc(C(=O)O[C@H]2C=COC=C3C=C4C(=O)N(C)C(=S)C(=O)N4[C@@H]32)cc1Oc1cc(C=O)ccc1O | i |
| C=C1CC[C@@H]2C(C)(C)CCC[C@@]2(C)[C@@H]1CC/C(=C/C(=O)OC)COC(C)=O | i |
| CC(=O)Nc1c2n(c3ccc(F)cc13)CC(C)(C(=O)NCCC(C)C)N(Cc1ccccc1C)C2=O (centres undefined) | i |
| Cc1ccccc1Cn1cc(-c2ccncc2)cc1C(=O)N1CCCC1 | i |
| CC(C)CCN1CC[C@@H]2OCC(=O)N(Cc3ccccc3)[C@H]2CC1 | i |
| O=C(NCc1ccc(Cl)cc1)c1cc2cccnn2n1 | i |
| Fc1ccccc1Nc1ccnc(N2CC3CCC(C2)N3CC(F)(F)F)n1 | i |
| CCOC(=O)c1cc2n(n1)CC(C)(C(=O)NCc1ccc(C)cc1)N(c1ccc(CC)cc1)C2=O (centres undefined) | i |
| C/C=C/C=C/c1cc2c(C=O)c(O)c(CC=C(C)C)cc2o1 | i |
| CC(C)(C)NC(=O)Nc1cccc(Nc2ncc(F)c(NC(C)(C)CO)n2)c1 | i |
| CC(C)CCn1c(=O)c2ccc(C(=O)NC(C)C)cc2n2c(=O)n(Cc3ccc(Cl)cc3)nc12 | i |
| CN1C(=O)c2cc(C(=O)NCCSCc3ccco3)nn2CC1(C)C(=O)NCc1ccc(F)cc1 (centres undefined) | i |
| C=C1CC[C@@]2(OC1)O[C@H]1CC3[C@@H]4CC=C5C[C@@H](O)C[C@@H](O[C@@H]6OC[C@H](O)[C@H](O)[C@H]6O[C@@H]6O[C@@H](C)[C@H](O)[C@@H](O)[C@H]6O)[C@]5(C)C4CC[C@]3(C)[C@H]1[C@@H]2C (some centres undefined) | i |
| O=S(=O)(c1cccnc1)N1CCC(N(Cc2cccnc2)C2CCOCC2)CC1 | i |
| O=C(NCc1ccccc1)C1CCN(c2cnc3nccnc3c2)CC1 | i |
| CCCOC(c1cc2nccc(C(=O)O)c2[nH]1)c1ccccc1Cl (centres undefined) | i |
| CC(C)CNC(=O)c1ccc2c(=O)n(CC(C)C)c3nn(Cc4ccc(F)cc4Cl)c(=O)n3c2c1 | i |
| COc1cccc(N2C(=O)NC(=NC3CCCCC3)C23CCCN(CC2CCCCC2)C3)c1 (centres undefined) | + |

Assay outcomes: PubChem, National Center for Advancing Translational Sciences (NCATS)
